Beta apoptosis – inhibitors of cytokine-induced beta cell apoptosis, primary screen, luminescence | INS-1E cytokine-induced death, ATP luminescence, 48 h; percent of positive-control rescue, neutral wells zero | protection from apoptosis, % (concentration not given with the values) | hit rate 0.8% among 300,000 | AID 435005, 2010;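 active = all replicates at 75% or more, or half of them and the mean; inconclusive = half reach 75% but not the mean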;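 also: 0% = cytokine-treated negative control wells and 100% = positive control rescue; higher means more ATP so stronger rescue from cytokine killing; wells of about 40 µL received 100 nL stock; the first replicate is given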
T cruzi inh – inhibitors of intracellular T. cruzi growth, primary screen, luminescence, NIH3T3 host cells. T. cruzi beta-gal in NIH3T3, 90 h. hit rate 1.4% among 300,000. inhibition, % (no concentration beside the values). AID 1885, 2009;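 active = mean inhibition across valid replicates above about 55%, limit read from the data; inconclusive = mean below that limit but half or more replicates reach it; inactive = mean below it, under half of replicates reach it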;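 also: signal also drops with host cell toxicity which is not excluded here; 0% = plate median of DMSO wells and 100% = zero luminescence signal; higher percent means less beta-gal luminescence so fewer parasites; stock transfer was 50 nL into about 50 µL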
E coli growth – E. coli growth inhibition, primary screen, OD600; Escherichia coli growth, 23 h; hits give low values; OD600 absorbance (concentration not given with the values); hit rate 0.21% among 330,000; AID 1053175, 2014;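 active = OD600 absorbance below the run mean of sample wells minus 3.6 SD, in any replicate, cut at about 0.56 in these data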;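 also: stock transfer was 300 nL into about 60 µL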
AF4-AF9 inh – inhibitors of AF4 peptide binding to AF9, primary screen, biochemical, AlphaScreen, biotin-AF4 peptide, FLAG-AF9, single point; AID 651704, 2012; inhibition, % at 10 µM; hit rate 0.47% among 350,000;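 active = every replicate reaching a set inhibition limit, whatever the replicate mean, cut at about 25% in these data; inconclusive = mean inhibition reaches that limit but some replicates miss it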;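 also: 0% = plate neutral control median and 100% = total signal loss; the record names both 10 and 1 µM as test concentration; the first replicate is given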
Target sequence (P42568 whole entry, looked up): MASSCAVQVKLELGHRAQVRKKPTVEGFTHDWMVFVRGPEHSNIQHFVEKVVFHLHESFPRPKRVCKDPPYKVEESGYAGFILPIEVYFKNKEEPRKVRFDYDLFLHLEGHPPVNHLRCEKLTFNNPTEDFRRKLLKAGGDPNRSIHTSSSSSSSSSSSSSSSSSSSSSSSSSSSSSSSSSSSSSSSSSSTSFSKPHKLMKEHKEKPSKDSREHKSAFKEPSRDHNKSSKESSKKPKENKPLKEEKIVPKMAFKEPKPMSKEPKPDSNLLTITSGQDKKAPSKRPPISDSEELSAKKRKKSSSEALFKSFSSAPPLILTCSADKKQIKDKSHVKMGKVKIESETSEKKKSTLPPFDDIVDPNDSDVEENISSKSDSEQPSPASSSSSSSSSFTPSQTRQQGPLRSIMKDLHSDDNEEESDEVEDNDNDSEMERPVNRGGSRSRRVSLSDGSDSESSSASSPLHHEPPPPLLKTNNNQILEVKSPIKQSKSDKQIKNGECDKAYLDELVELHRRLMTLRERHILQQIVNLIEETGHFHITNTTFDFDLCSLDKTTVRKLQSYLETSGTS
FGF22 binding – binders of human FGF22 protein, primary screen, FGF22 synaptogenesis inhibitor project, biophysical, thermal shift, single point | AID 651658, 2012 | recombinant FGF22 thermal shift, SYPRO orange fluorescence; percent of sucrose octasulfate shift, DMSO zero | hit rate 1.5% among 340,000 | calls only at 9.99 µM | Fibroblast growth factor 22 (Homo sapiens), Q9HCT0;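 active = melting point raised past a set limit in the mean and every replicate; inconclusive = no clear call; three in four hits are not shown here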
Target sequence (Q9HCT0 whole entry, looked up): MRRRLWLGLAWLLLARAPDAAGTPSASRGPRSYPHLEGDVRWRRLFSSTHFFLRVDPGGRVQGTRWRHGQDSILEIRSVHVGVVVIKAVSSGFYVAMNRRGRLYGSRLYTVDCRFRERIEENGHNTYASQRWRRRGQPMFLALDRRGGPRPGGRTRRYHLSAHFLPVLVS
UCH37 inh – inhibitors of human UCH37 deubiquitinase, primary screen, biochemical, Ub-AMC cleavage, fluorescence. Ubiquitin carboxyl-terminal hydrolase isozyme L5 (Homo sapiens), Q9Y5K5. purified proteasome/UCH37. inhibition, % (test concentration not listed). hit rate 0.33% among 330,000;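 active = mean of two replicates above 20%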;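 also: 0% = compound-free wells with enzyme and 100% = wells lacking proteasome; stock transfer was 100 nL into about 20 µL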
Target sequence (Q9Y5K5 whole entry, looked up): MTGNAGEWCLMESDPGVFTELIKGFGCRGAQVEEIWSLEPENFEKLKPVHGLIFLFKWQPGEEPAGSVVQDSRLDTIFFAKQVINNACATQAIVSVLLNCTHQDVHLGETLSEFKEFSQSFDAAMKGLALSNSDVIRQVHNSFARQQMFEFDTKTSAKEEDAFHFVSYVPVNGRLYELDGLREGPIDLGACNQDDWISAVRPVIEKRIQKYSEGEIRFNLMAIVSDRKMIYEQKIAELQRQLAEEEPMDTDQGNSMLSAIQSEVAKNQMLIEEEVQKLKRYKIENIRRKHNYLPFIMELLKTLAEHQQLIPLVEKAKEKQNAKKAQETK
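Test system – human UCH37 enzyme supplied as purified proteasome complex · Incubation – 30 min preincubation with enzyme, 25 min cleavage at room temperature · Detection – AMC fluorescence from Ub-AMC cleavage, excitation 355 nm, emission 460 nm · Benchmarks – no-proteasome wells (full inhibition) and compound-free wells (no inhibition)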
rRNA inh HTS – reduced GFP signal of wild-type E. coli, primary screen, bacterial rRNA inhibitor project, GFP/RFP fluorescence, OD600, single point | E. coli WT GFP vs humanized-ribosome RFP mutants, 24 h; hits give low values; DMSO median 0, no signal -100 | GFP signal change (wild-type ribosome), % (test concentration not listed) | hit rate 1.6% among 350,000 | AID 720706, 2013;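 active = significant combined selectivity score with lowered wild-type GFP, culture density cut under 30%, mutant RFP and density less affected; inactive = any of these conditions unmet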; also: one replicate is shown; some compounds called inactive have numbers as strong as hits
A1 inh – caspase 3/7 activation in MEF A1-2A-BIM cells, primary screen, A1 inhibitor project, cell-based, luminescence, HTS | Caspase-Glo 3/7 luminescence, 3 h; percent of clofoctol response, vehicle zero | caspase activation, % (test concentration not listed) | hit rate 0.066% among 330,000;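 active = over half of replicate activation scores above 10%, or exactly half above 10 with the replicate mean above 10; inconclusive = replicate mean below 10 yet half the replicates above 10; inactive = over half of replicates below 10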;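 also: wells of about 30 µL received 50 nL stock; many hits fall short of the cut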
rRNA inh HTS OD600 – further read-out of rRNA inh HTS, marked with its call; OD600 change, %; measured here: OD600 growth;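 optical density of the mix in the first replicate; 0 = DMSO median and -100 = no signal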
rRNA inh HTS RFP – recorded beside rRNA inh HTS, whose call it bears; RFP signal change, %; measured here: RFP humanized mutant strains;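 first replicate; 0 = DMSO median and -100 = no signal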
* marks the source's active call; other numbers are inactive results; i = inactive; u = inconclusive; x = not tested or not shown. The list is partial (hit frequency here may not be typical).

SMILES	Beta apoptosis	T cruzi inh	E coli growth	AF4-AF9 inh	FGF22 binding	UCH37 inh	rRNA inh HTS	rRNA inh HTS OD600	rRNA inh HTS RFP	A1 inh
CC(C)CN(C(=O)CSc1nnc2c(Cl)cc(C(F)(F)F)cn12)C1CCS(=O)(=O)C1 (stereo not given)	x	-1	0.68	x	x	-4.1	x	x	x	0.5
Nc1nnc(CSCc2ccccc2)s1	3	-12	0.73	x	x	3.4	x	x	x	1.5
O=C(Nc1ccc(Cl)cc1)Nc1nnc(CSCc2ccc(Cl)cc2)s1	u	13	0.67	-2.4	i	2.6	x	x	x	-0.6
Cc1nc(NCCN2CCOCC2)c2oc3ccccc3c2n1	2	-7	0.64	x	x	0.7	x	x	x	1.3
Cc1ccc(-n2nc3cc(Cl)c(NC(=O)c4ccco4)cc3n2)cc1	2	-19	0.72	x	x	-13	x	x	x	-0.8
O=C(CSc1nnc(-c2cccnc2)s1)Nc1ccnc2ccccc12	2	-27	0.67	x	x	1.2	x	x	x	0.3
COc1cc(/C=N/NC(=O)CNC(=O)c2ccco2)ccc1O	0	8	x	-0.1	i	x	11	6	-0.8	-0.1
Cc1cccc(OCCc2nnc(N)s2)c1C	-2	-11	0.69	x	x	-0.2	x	x	x	2.2
O=C(N/N=C/c1cccs1)c1cccc(NC(=O)c2ccccc2Cl)c1	-3	-11	x	3.5	i	x	-14	-15	-4.0	-1.2
Cc1nc2ccc(S(=O)(=O)N3CCCCC3)cc2s1	-3	12	0.62	-3.4	i	0.9	5	8	-2.3	-0.6
Cc1ccc(NC(=O)CN2C(=O)NC3(CCCCC3)C2=O)cc1S(=O)(=O)N1CCOCC1	-22	x	0.69	-0.8	i	0.4	0	-2	-1.1	0.9
C/C(=N\NC(=O)c1ccccc1Br)c1ccc(N2CCOCC2)cc1	3	13	x	4.1	i	x	-7	2	-1.9	0.5
Nc1nc2cc(Br)ccc2o1	x	x	0.65	0.8	i	2.1	-5	-15	21	x
COc1ccc2oc(C(=O)OCC(=O)N(CC(C)C)c3c(N)n(Cc4ccccc4)c(=O)[nH]c3=O)c(C)c2c1	3	4	x	7.1	i	x	0	12	-0.1	-0.3
S=C(Nc1ccccc1)N1CCCN1c1ccccc1	4	-32	0.61	2.1	i	2.5	-4	-3	-1.6	-0.4
CC(OC(=O)c1ccc(CN2CCCC2=O)cc1)C(=O)Nc1ccc(Cl)cc1 (stereo not given)	3	x	0.64	2.9	i	0.6	5	7	5.4	1.2
C/C(=N/NC(=O)c1ccccn1)c1ccncc1	0	-7	x	0.3	i	x	1	11	0.0	-3.1
CCC(C)NC(=O)CN(c1ccc(OC)cc1)S(=O)(=O)c1ccccc1 (stereo not given)	x	-14	0.67	-0.7	i	-0.1	10	9	-1.0	0.3
CCNC(=S)NNc1nc(N2CCOCC2)nc(N2CCOCC2)n1	-1	2	0.65	-1.7	x	0.2	16	12	-0.4	-0.7
COc1ccc(C(=O)NCc2nnc(SCC(=O)N3CCC(C)CC3)o2)cc1OC	1	-3	0.75	x	x	3.0	x	x	x	0.2
Cc1cc(C)c2c(c1)NC(=O)C2(O)CC(=O)c1cccs1 (stereo not given)	-5	x	0.69	x	x	1.8	x	x	x	0.3
Cc1ccc(C(=O)Nc2ccc(SC(F)F)cc2)s1	x	6	0.65	-5.3	i	5.9	-8	-8	-3.0	-4.4
S=C(c1ccc2c(c1)OCO2)N1CCCCC1	5	-10	0.74	0.0	x	1.0	x	x	x	0.3
CCN(CC(=O)Nc1c(F)cccc1F)C(=O)CCN1C(=O)C2CC=CCC2C1=O (stereo not given)	-2	-6	0.68	3.6	i	1.3	-3	-6	-1.0	-0.9
c1ccc(Sc2ncccn2)nc1	-3	-26	0.64	-5.0	i	1.2	20	12	0.4	0.3
CCN1CCCC1CNC(=O)c1cn(CC)c2ccc(S(=O)(=O)N3CCCCCC3)cc2c1=O (stereo not given)	-10	5	0.76	x	x	-0.6	x	x	x	-0.3
COc1ccc(CCNc2ccc([N+](=O)[O-])cn2)cc1	-2	13	0.75	-1.7	i	10	2	1	4.5	-0.1
Cn1c(=O)n(C)c2cc(/C=N/NC(=O)c3ccc(Cl)cc3)ccc21	2	-2	x	-0.8	i	x	10	-6	-4.4	0.0
CCOC(=O)N1CCN(C(=O)/C(=C/c2ccccc2OC)NC(=O)c2ccccc2)CC1	-4	-2	0.68	-4.2	i	2.4	5	-7	-4.9	0.1
Nc1ccc(Oc2ccc(Br)cc2)cc1	1	-29	0.6	x	x	1.4	x	x	x	1.1
CCNc1nc(N)c(C(=O)c2ccc(Cl)s2)s1	-21	16	0.67	x	x	6.4	x	x	x	1.2
CCOC(=O)c1c(NC(=O)COC(=O)c2ncc(Cl)c(Cl)c2Cl)sc(C(=O)N(C)C)c1C	3	-8	0.71	x	x	1.5	9	4	5.6	0.0
CCCc1cc(C(=O)Nc2ccc(F)c(Cl)c2)no1	-5	0	0.67	-3.8	i	-0.3	-6	-27	14	-5.6
CCOc1cccc(-c2cc(-c3n[nH]c(=S)n3CC)c3ccccc3n2)c1	15	22	0.76	12	i	1.0	-37*	-23*	6.5*	0.0
COc1ccc(N2CC(C(=O)NCCC3=CCCCC3)CC2=O)c(OC)c1 (stereo not given)	-5	-1	0.68	-7.1	i	5.6	3	7	-0.3	-1.4
O=C(C1CCCN(c2ncnc3c2nc2n3CCCCC2)C1)N1CCN(c2ccccc2)CC1 (stereo not given)	8	10	0.68	3.3	i	-1.3	-32	-29	-3.9	0.5
Cc1ccc(C)c(-n2sc3ccc(F)cc3c2=O)c1	17	x	x	-37	i	3.9	-51	-78	-22	-1.0
Cc1nc2ccccc2n1Cc1n[nH]c(=S)n1-c1ccc(Cl)cc1	-8	1	0.69	2.6	i	1.2	-6	-15	-5.0	0.4
COc1ccc(CCNC(=O)CSc2nc3scc(-c4ccccc4)c3c(=O)[nH]2)cc1	1	x	0.71	2.2	i	2.5	2	2	-2.1	0.8
COc1ccc(C(=O)Nc2nc3ccccc3[nH]2)cc1S(=O)(=O)N1CCOCC1	3	7	0.69	4.4	i	4.8	-13	0	-1.6	0.0
Cc1cc(C(=O)Nc2ccccc2C#N)n(-c2ccccc2)n1	-10	-11	0.71	0.8	i	3.9	5	4	-2.1	-0.3
COc1ccc(NC(=O)COC(=O)c2ccncc2)c(OC)c1	3	2	0.65	0.5	i	4.0	7	13	3.6	0.2
O=S(=O)(O)c1nnc2sc3ccccc3n12	0	-6	0.76	x	x	2.1	x	x	x	1.3
O=C(CSCc1c(Cl)cccc1Cl)NCc1cccnc1	-9	14	0.66	6.2	i	0.8	-9	-18	-0.6	1.3
Cc1ccc(NC2=CC(=O)C(=O)c3ccccc32)cc1	100*	-7	0.66	x	x	46*	x	x	x	0.5
O=C(NCCc1ccc(Cl)cc1)C1CCCN(c2ncnc3c2nc2n3CCCCC2)C1 (stereo not given)	4	17	0.71	-7.1	i	5.2	4	8	-2.9	-0.3
CCOC(=O)C1C(=O)N(C(=O)c2cncc(Br)c2)CC1c1ccccc1 (stereo not given)	-10	-11	0.74	x	x	-0.1	x	x	x	-0.2
O=C(NCCS(=O)(=O)N1CCN(c2ccc(F)cc2)CC1)C1CC(=O)N(c2ccccc2)C1 (stereo not given)	x	-14	0.72	-9.5	i	5.7	5	9	3.8	-0.3
Cc1ccccc1-n1ncc2c1CC(C)(C)CC2NC(=O)CCC1=NNC(=O)CC1 (stereo not given)	-1	2	0.69	-0.6	i	3.5	4	5	-0.8	0.9
COCCNC(=O)C1Cc2cc(S(=O)(=O)N3CCCC3)ccc2N1C(C)=O (stereo not given)	x	-26	0.67	-0.5	i	5.8	10	13	-1.5	1.8
O=C1NC(NS(=O)(=O)c2ccc(Cl)cc2)(C(F)(F)F)C(=O)N1CCc1ccccc1 (stereo not given)	3	-3	0.66	1.9	i	0.9	1	16	-4.9	-0.1
c1ccc(Nc2ccc(-n3ccnc3)nn2)cc1	-2	-5	0.65	8.9	i	5.2	7	2	4.0	-0.9
CCCn1nnnc1SCC(=O)c1ccc(NC(C)=O)cc1	-1	-6	0.72	x	x	-0.7	x	x	x	0.0
CCOC(=O)Cc1csc(NC(=O)Nc2ccc(OC(F)(F)F)cc2)n1	7	1	0.67	2.0	i	2.1	-21*	-12*	0.1*	0.1
CC(C)CNC(=O)CN(c1ccccc1)S(=O)(=O)c1ccccc1[N+](=O)[O-]	2	6	x	-2.1	i	x	-13	-3	2.3	1.2
COc1ccc(N2C(=O)C3CCCN3C2c2ccc(C)o2)cc1Cl (stereo not given)	-6	-22	0.68	x	x	5.0	x	x	x	0.1
CN(C)c1ccc(C(=O)N/N=C/c2cc(Br)cc(Br)c2O)cc1	31	48	x	-4.7	i	x	6	13	1.5	-0.6
COCc1cc(Sc2ccc(Cl)cc2)nc(-c2ccccc2)n1	3	16	0.73	x	x	6.0	x	x	x	-0.1
O=C(Oc1ccc(C(=S)N2CCOCC2)cc1)c1cccc(Cl)c1	1	6	0.63	2.2	i	3.7	-21	-20	-3.5	-0.9
CC(=O)N1c2ccc(S(=O)(=O)NCC3CCC(C(=O)NC4CCCCC4)CC3)cc2CC1C (stereo not given)	3	23	0.69	-1.2	i	-1.4	15	21	1.6	-1.0
COc1cc(C(=O)OCC(=O)c2ccc(S(=O)(=O)N3CCCCC3)cc2)cc(OC)c1OC	0	x	0.71	-1.7	i	1.5	7	14	-2.3	0.3
O=C(N/C(=C/c1ccc(F)cc1)C(=O)N1CCOCC1)c1ccccc1	x	-7	0.71	0.8	i	3.8	4	9	0.8	x

Quoted at random: three compounds from above.
SMILES	Beta apoptosis	T cruzi inh	E coli growth	AF4-AF9 inh	FGF22 binding	UCH37 inh	rRNA inh HTS	rRNA inh HTS OD600	rRNA inh HTS RFP	A1 inh
COCc1cc(Sc2ccc(Cl)cc2)nc(-c2ccccc2)n1	3	16	0.73	x	x	6.0	x	x	x	-0.1
CC(=O)N1c2ccc(S(=O)(=O)NCC3CCC(C(=O)NC4CCCCC4)CC3)cc2CC1C (stereo not given)	3	23	0.69	-1.2	i	-1.4	15	21	1.6	-1.0
COCCNC(=O)C1Cc2cc(S(=O)(=O)N3CCCC3)ccc2N1C(C)=O (stereo not given)	x	-26	0.67	-0.5	i	5.8	10	13	-1.5	1.8

Source: PubChem (several laboratories)
